High-throughput results (PubChem BioAssay)
Luciferase inh – qHTS Assay for Inhibitors of Firefly Luciferase | Potency, µM (doses to about 57.1 µM), for inactives: at the highest dose activity change, negative = inhibition, usual class: inhibitors | 72,000 tested, 2.2% active | purified firefly luciferase, luminescence, 8 min | Luciferin 4-monooxygenase (Photinus pyralis), P08659 | AID 411, 2009; further: potency means the concentration at half of the fitted maximal effect; on the % scale 0 is the no-effect control and ±100 the full control effect; nearly all actives have a fitted effect of over 40% in size
Target sequence (P08659 whole entry, looked up): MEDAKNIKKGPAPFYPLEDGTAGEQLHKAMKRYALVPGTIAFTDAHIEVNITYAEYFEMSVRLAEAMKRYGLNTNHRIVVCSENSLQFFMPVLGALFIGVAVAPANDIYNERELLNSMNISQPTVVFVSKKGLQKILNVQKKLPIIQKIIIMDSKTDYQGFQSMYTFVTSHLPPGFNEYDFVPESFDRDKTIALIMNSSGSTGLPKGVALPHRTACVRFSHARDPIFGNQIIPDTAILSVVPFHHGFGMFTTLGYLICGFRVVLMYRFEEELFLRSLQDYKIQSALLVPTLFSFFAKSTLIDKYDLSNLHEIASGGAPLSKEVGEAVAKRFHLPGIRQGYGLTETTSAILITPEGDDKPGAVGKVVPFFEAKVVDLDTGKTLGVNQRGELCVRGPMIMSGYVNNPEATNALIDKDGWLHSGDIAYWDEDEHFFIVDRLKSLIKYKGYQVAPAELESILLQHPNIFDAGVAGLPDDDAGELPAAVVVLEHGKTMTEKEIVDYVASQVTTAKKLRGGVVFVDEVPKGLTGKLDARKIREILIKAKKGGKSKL
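Titration-based qHTS; buffer 50 mM imidazole pH 7.2, 50 mM KCl, 7 mM MgCl2, 10 uM ATP, 0.01% Tween 20, 0.05% BSA; luciferase/luciferin detector mix added after compound; 8 min, ambient; luminescence.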
Fluorescein autfl – qHTS Assay for Spectroscopic Profiling in Fluorescein Spectral Region | 59,000 tested, 0.91% active | max fluorescein-equivalent concentration, M | Compound autofluorescence, 480/540 nm, fluorescein-equivalent; stronger effect = higher value; in the data active means max fluorescein-equivalent concentration above about 10 nM; inconclusive means between about 1.1 nM and that limit
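First, buffer (100 mM Tris, pH 8.0) dispensed; second, compounds and fluorescein standards pinned in; third, 15 min room-temperature incubation; finally, imaging at ex 480 nm/em 540 nm. Fluorescence normalized against the six-point fluorescein curve.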
4MU fluor – qHTS Assay for Spectroscopic Profiling in 4-MU Spectral Region; compound autofluorescence, 340/450 nm, 4-MU equivalents; stronger effect = higher value; AID 589, 2007; 59,000 tested, 11% active; max dye-equivalent concentration, M; in the data active means max dye-equivalent concentration above about 10 nM; inconclusive means mostly about 1.1 nM to 9.6 nM
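Compounds in 100 mM Tris, pH 8.0, incubated 15 min at room temperature, then fluorescence read at 340 nm excitation/450 nm emission. Signal converted to 4-MU dye-equivalent concentration using an on-plate six-point 4-MU standard curve.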
ERK AVP block – qHTS Assay for Inhibitors of the ERK Signaling Pathway using a Homogeneous Screening Assay; Potency, µM (titrated, usually from 57.5 µM), without a hit: top-dose activity, negative = inhibition, hits mostly inhibitors; 72,000 tested, 0.99% active; AID 995, 2007; HEK293-V1b, vasopressin-stimulated pERK AlphaScreen; further: potency means the concentration at half of the fitted maximal effect; on the % scale 0 is the no-effect control and ±100 the full control effect; nearly all actives have a fitted effect of over 55% in size
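HEK293 cells stably expressing V1b receptor, preincubated 30 min at 37 °C with compound, then stimulated 5 min with 25 nM vasopressin. Phospho-ERK by AlphaScreen SureFire after 5 h RT; normalized to DMSO and vasopressin; AC50 by Hill fit.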
Epigenetic mod – qHTS Assay for Epigenetic Modulators | mouse C127i GFP locus derepression, cytometry, 30 h | Potency, µM (series often up to 46.1 µM), for the others: at the highest dose GFP derepression (activation) | 68,000 tested, 0.09% active | AID 597, 2007; further: % of control where 0% means no effect
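Murine C127i mammary cells carrying a silenced, stably integrated CMV-driven GFP reporter were treated with compound for 30 hours at 37 C. After PBS washes, GFP-positive cells were counted by laser-scanning microplate cytometry.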
HBB splicing – qHTS Assay for Modulators of Hemoglobin Beta Chain Splicing. Potency, µM (top dose mostly 46.1 µM), for the others: top-dose activation, most hits filed as activators. HBB splicing reporter cell assay, activation; EGFP reporter with mutant IVS2-654 intron; response scale: normalised to 500 nM splice-correcting PNA. 65,000 tested, 0.06% active; further: potency means the concentration at half of the fitted maximal effect; 0% is about no effect
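Compounds were applied for 2 days to HeLa EGFP-654 cells, 500/well in Optimem with 2% FCS. The reporter's EGFP is disrupted by mis-splicing of beta-globin intron IVS2-654. Readout: summed well GFP fluorescence from 488 nm laser scanning; reference was 500 nM antisense […] 654 PNA.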
TexasRed autofl – qHTS Assay for Spectroscopic Profiling in Texas Red Spectral Region. max dye-equivalent concentration, M. 59,000 tested, 0.06% active. AID 587, 2007. Compound fluorescence, Texas Red channel, 547/618 nm; stronger effect = higher value; in the data active means max dye-equivalent concentration above about 10 nM; inconclusive means between about 1.1 nM and that limit
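Compound fluorescence was read after 15 min at room temperature in 100 mM Tris, pH 8.0, using 547 nm excitation and 618 nm emission across a concentration series. It was expressed as Texas Red dye-equivalent concentration from an on-plate standard curve.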
A350 autofl – qHTS Assay for Spectroscopic Profiling in A350 Spectral Region; Compound autofluorescence, 340/450 nm, Alexa 350 dye-equivalents; stronger effect = higher value; max dye-equivalent concentration, M; 59,000 tested, 11% active; in the data active means max dye-equivalent concentration above about 10 nM; inconclusive means mostly about 1.1 nM to 9.6 nM
CRE-bla Fsk – Cell signaling CRE-BLA (Fsk stim) | CHO CRE-bla reporter (cAMP response element driving beta-lactamase), forskolin EC10, beta-lactamase ratio | Potency, µM (top dose mostly 38.2 µM), without a hit: at the highest dose activity change, negative = inhibition, most hits filed as activators | 71,000 tested, 2.5% active; active means well fitted activation curve with a large enough effect in the signal ratio, with a control signal flat, not every such curve was filed as active; inconclusive means small, poorly fitted or top-dose-only effect, or effect the other way, or a change in a side signal; the % refers to the signal ratio; further: potency means the concentration at half of the fitted maximal effect; % of control where 0% means no effect
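Reporter-gene assay: CHO cells with beta-lactamase behind cAMP responsive elements, co-treated with compound and EC10 NKH 477 for 3 hours at 37 degrees Celsius. Activity came from the 460/530 nm CCF4 emission ratio.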
UbGFP stabilizer – Ubiquitin-GFP Assay; Ubiquitin-GFP reporter cells, proteasome inhibition, GFP fluorescence; response scale: untreated = 0%, 10 µM MG-132 = 100%; Potency, µM (series often up to 45.9 µM), for inactives: at the highest dose activation (GFP accumulation), most hits filed as activators; 67,000 tested, under 10 active; AID 526, 2006; active means well fitted activation curve with a large enough effect, not every such curve was filed as active; inconclusive means small, poorly fitted or top-dose-only effect, or another doubt; inactive means no such curve, though single readings can be large or run the other way; further: potency means the concentration at half of the fitted maximal effect
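U2OS cells stably expressing ubiquitin(G76V)-GFP, seeded overnight in 0.5% FBS medium, were exposed to compounds (qHTS, 46 uM to 2.9 nM) for 4 hr at 37 °C. GFP-positive cells were counted by laser cytometry (488 ex/515 em), normalized between basal and 10 uM MG-132.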
* hit, by the source's call; i = inactive; ? = inconclusive; nt = no result given; [ ] = dose if it differs, or a comment. Unless noted, the call rests on the fitted dose curve; in most records, active means well fitted curve in the direction sought with a large enough effect; inconclusive means small, poorly fitted or top-dose-only effect, or another doubt; inactive means no such curve, though single readings can be large; an effect the other way counts as inactive or inconclusive. Only part of the results is shown (hit frequency here may not be typical).

A first look, seven compounds:
nr | SMILES | Fluorescein autfl | Epigenetic mod | HBB splicing | 4MU fluor | Luciferase inh | CRE-bla Fsk | TexasRed autofl | A350 autofl | UbGFP stabilizer | ERK AVP block
1 | O=C(CSCSCC(=O)Nc1ccc2c(c1)OCO2)Nc1ccc2c(c1)OCO2 | ? | -2% | -8.7% | i | -16% | -20% | i | i | -1% | 18%
2 | Cc1ccc(Nc2nc(N)nc(CN3CCN(C)CC3)n2)cc1C | i | 2% | -2.7%[57.5 µM] | i | 4% | 6% | i | i | -2% | 2%
3 | CC(C)=C(NC(=O)c1ccccc1)C(=O)NCCCC(=O)O | nt | 2% | 0.4%[0.0738 µM] | nt | -7% | -11%[7.6 µM] | nt | nt | -14%[9.17 µM] | -6%
4 | Oc1c(C(c2cccs2)N2CCN(c3ccccc3)CC2)sc2ncnn12 (centres undefined) | nt | nt | 0.7% | nt | 4% | -6% | nt | nt | 11% | nt
5 | Cc1cc(N2CCOCC2)n2nc(-c3cccc(F)c3)cc2n1 | 1.1e-08M* | 1% | -2.4% | 2.9e-07M* | -1% | 11% | i | 4.7e-07M* | 0% | ?
6 | CC1(C)CC(=O)C=C(Nc2ccc(Br)cn2)C1 | i | 1% | -2.8% | ? | 1% | -2% | ? | ? | -2% | -5%
7 | Nc1nc(CN2CCc3ccccc3C2)nc(Nc2ccccc2)n1 | i | 3% | -0.4% | i | 0% | -3% | i | i | 0% | ?

Results (from the top)
nr | SMILES | Fluorescein autfl | Epigenetic mod | HBB splicing | 4MU fluor | Luciferase inh | CRE-bla Fsk | TexasRed autofl | A350 autofl | UbGFP stabilizer | ERK AVP block
1 | O=C(CSCSCC(=O)Nc1ccc2c(c1)OCO2)Nc1ccc2c(c1)OCO2 | ? | -2% | -8.7% | i | -16% | -20% | i | i | -1% | 18%
2 | Cc1ccc(Nc2nc(N)nc(CN3CCN(C)CC3)n2)cc1C | i | 2% | -2.7%[57.5 µM] | i | 4% | 6% | i | i | -2% | 2%
3 | CC(C)=C(NC(=O)c1ccccc1)C(=O)NCCCC(=O)O | nt | 2% | 0.4%[0.0738 µM] | nt | -7% | -11%[7.6 µM] | nt | nt | -14%[9.17 µM] | -6%
4 | Oc1c(C(c2cccs2)N2CCN(c3ccccc3)CC2)sc2ncnn12 (centres undefined) | nt | nt | 0.7% | nt | 4% | -6% | nt | nt | 11% | nt
5 | Cc1cc(N2CCOCC2)n2nc(-c3cccc(F)c3)cc2n1 | 1.1e-08M* | 1% | -2.4% | 2.9e-07M* | -1% | 11% | i | 4.7e-07M* | 0% | ?
6 | CC1(C)CC(=O)C=C(Nc2ccc(Br)cn2)C1 | i | 1% | -2.8% | ? | 1% | -2% | ? | ? | -2% | -5%
7 | Nc1nc(CN2CCc3ccccc3C2)nc(Nc2ccccc2)n1 | i | 3% | -0.4% | i | 0% | -3% | i | i | 0% | ?
8 | N#CC(C(=O)NC1CCCCC1)c1nc2ccccc2nc1N1CCN(c2ccc(F)cc2)CC1 (centres undefined) | 3.5e-07M* | ? | ? | i | 2% | ? | i | ? | ? | 7%
9 | CC1(C)Cc2nc3oc4c(N(CCO)Cc5ccccc5)ncnc4c3cc2CO1 | i | 6% | 0.1%[57.5 µM] | 2.3e-08M* | -1% | ? | i | 3e-08M* | -1% | ?
10 | CC(=O)N(CN1C(=O)c2ccccc2C1=O)c1ccccc1 | ? | -2% | -6.5% | ? | 3% | -3% | i | 1.1e-08M* | -2% | 6%
11 | Oc1ccc(C(c2nnnn2C2CCCC2)N2CCc3ccccc3C2)cc1 (centres undefined) | ? | 0% | -1.6% | i | 0% | ? | ? | i | 5% | 19%
12 | COC(=O)c1ccc(C2CC(=O)NC3=C2C(=O)CCC3)cc1 (centres undefined) | i | 0% | 0.3% | ? | 1% | -3% | i | 1e-08M* | -3% | -10%
13 | Cc1cc(C(=O)CN2C(=O)c3ccccc3C2=O)c(C)n1C1CC1 | ? | -2% | 1.6% | i | -41% | ? | i | i | 2% | -16%
14 | Cc1nn(-c2nnc(C)c(=O)[nH]2)c(C)c1SCC(=O)Nc1ccc(F)cc1 | i | 3% | -0.1% | i | 3% | -7% | i | i | -2% | -12%
15 | CN(CCNC(=O)C1CC(=O)N(C2CCCC2)C1)Cc1ccccc1 (centres undefined) | nt | -3% | -0.6% | nt | 3% | -3% | nt | nt | 3% | -25%
16 | Cc1ccc(Nc2nc(N)nc(CN3CCN(c4ccccc4)CC3)n2)cc1Cl | i | -2% | -4.1%[57.5 µM] | i | -1% | 9% | i | i | 4% | -22%
17 | c1cncc(C2Nc3ccccc3-c3nc4ccccc4n32)c1 (centres undefined) | ? | 3% | 0.0%[57.5 µM] | 8.6e-07M* | -23% | ? | i | 8.2e-07M* | -4% | -4%
18 | Cc1cc(-c2ccco2)n(-c2ccccc2)n1 | i | 0% | -2.2% | i | -1% | ? | i | i | 5% | -21%
19 | N#CC1=C(N)Oc2n[nH]c(CSc3ccccc3)c2C12C(=O)Nc1ccccc12 (centres undefined) | i | 2% | -0.3% | i | 1% | -9% | ? | i | 1% | -24%
20 | CN1C(=O)CS(=O)c2ccc(C(=O)NC3CC3)cc21 (centres undefined) | nt | -3% | 0.0% | nt | 0% | -10% | nt | nt | -6% | -10%
21 | O=S(=O)(O)c1ccc(O)c2ncccc12.O=S(=O)(O)c1ccc(O)c2ncccc12.[Zn] | i | 2%[9.22 µM] | 0.2%[9.22 µM] | i | 1%[11.4 µM] | -10%[7.6 µM] | i | ? | 3%[9.17 µM] | -4%[11.5 µM]
22 | O=C(NCCc1ccccn1)C1CC(=O)N(Cc2ccccc2Cl)C1 (centres undefined) | i | 1% | -0.7% | i | 0% | 0% | i | i | ? | 24%
23 | CCOC(=O)CN1C(=O)C(O)(c2c(C)[nH]c3ccccc23)c2ccccc21 (centres undefined) | i | 0% | 2.2% | i | 0% | ? | i | i | -2% | -16%
24 | CCCCn1nnnc1NCc1cccs1 | i | 1% | 1.5% | ? | 0% | 1% | i | ? | 12% | -4%
25 | Cc1cc(=O)n2[nH]c(-c3ccccc3Cl)cc2n1 | i | -5% | 1.4%[0.369 µM] | ? | 16µM* | 8% | i | ? | nt | -8%

Next entries follow:
nr | SMILES | Fluorescein autfl | Epigenetic mod | HBB splicing | 4MU fluor | Luciferase inh | CRE-bla Fsk | TexasRed autofl | A350 autofl | UbGFP stabilizer | ERK AVP block
26 | O=C(NCCc1c[nH]c2ccccc12)c1cnc2sccn2c1=O | nt | nt | 0.3% | nt | ? | 8% | nt | nt | 13% | nt
27 | CN(C)C(=O)N1CCCC(C(=O)NCc2ccccc2)C1 (centres undefined) | ? | 0% | 0.3%[57.5 µM] | i | 2% | 13% | i | i | 0% | 5%
28 | CCOC(=O)c1sc(NC(=O)c2cccc(S(=O)(=O)N3CCN(C)CC3)c2)cc1C | ? | -2% | -2.2% | i | -6% | 43% | i | ? | -1% | 8%
29 | Nc1ccccc1SCc1cn2cccnc2n1 | nt | nt | 0.1% | nt | -3% | -12% | nt | nt | 7% | nt
30 | Cc1cc(N2CCN(C3CCCC3)CC2)n2ncc(-c3ccccc3)c2n1 | i | 0% | 0.5%[1.84 µM] | 2.2e-08M* | 3% | -4% | ? | ? | 20% | 6%
31 | CCOC(=O)CSc1ccc2nnc(-c3cccs3)n2n1 | nt | nt | 0.5% | nt | 2% | 4µM* | nt | nt | 2% | nt
32 | CCCCN(CC)S(=O)(=O)c1ccc(C(=O)Nc2nnc(CSC)o2)cc1 | i | 0% | -0.8% | ? | 3% | -9% | i | ? | 6% | 10%
33 | CC1CCN(C(=O)C2CCN(S(=O)(=O)c3cnc[nH]3)CC2)CC1 | i | 0% | -1.4% | i | 0% | 0% | i | i | 2% | 18%
34 | O=C(Nc1ccccc1)C1=C(O)CC(c2ccco2)CC1=Nc1ccccc1 (centres undefined) | i | -2% | -0.2% | i | 2% | -12% | i | i | -3% | 27%
35 | O=C(NCCC1=CCCCC1)C1CCN(S(=O)(=O)c2cnc[nH]2)CC1 | i | 1% | -1.2% | i | -3% | 2% | i | i | 16% | 8%
36 | CN(C)CCCNCCCNC(=O)/C(=N\O)c1ccccn1 | nt | -2% | -1.3%[0.0738 µM] | nt | 1% | 35%[7.6 µM] | nt | nt | -14%[9.17 µM] | -5%
37 | CN(C)S(=O)(=O)c1ccc(C(=O)Nc2ccnn2C2CCCCC2)cc1 | i | 4% | -0.4% | 1.9e-08M* | -2% | -4% | i | 1.9e-08M* | -7% | 16%
38 | Cc1ccc(-n2nnc3ccccc3c2=O)cc1C | nt | 4% | 0.5% | nt | -15% | 0% | nt | nt | 22% | -8%
39 | Nn1c(SCC(=O)Nc2ccc3c(c2)OCCO3)nnc1-c1ccccn1 | i | 3% | 1.1% | i | 0% | -26% | i | i | 10% | -18%
40 | COc1ccccc1CN1CC(C(=O)NCC2CCCO2)CC1=O (centres undefined) | i | 2% | 4.4% | i | 1% | ? | i | i | -5% | 20%
